Assay outcomes (PubChem)
Sfp PPTase inh: qHTS Assay for Inhibitors of Bacillus subtilis Sfp phosphopantetheinyl transferase (PPTase). 4'-phosphopantetheinyl transferase ffp (Bacillus subtilis), Q9F4F7. Biochemical Sfp PPTase activity, qHTS. Potency, µM, without a hit: max response, negative = inhibition, usual class: inhibitors. hit rate 3.5% among 310,000. AID 1490, 2009; active means well fitted inhibition curve with a large enough effect; inconclusive means small, poorly fitted or top-dose-only effect, or another doubt; inactive means no such curve, though single readings can be large or run the other way;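 further: the enzyme is Sfp with the accession as filed and its product quenches rhodamine fluorescence; potency means the concentration at half of the fitted maximal effect; 0% = enzyme reaction without inhibitor and -100% = no enzyme wells; top concentration of the series not given in the record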
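Sfp 15 nM + cpd, 15 min RT; start w/ rhodamine-CoA 5 uM, BHQ-2-YbbR 12.5 uM (final); 50 mM Hepes pH 7.6, 10 mM MgCl2, 0.01% NP-40, 0.01% BSA; read 525/598 nm at 0 and 30 min.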
gsp agonist: qHTS for Agonist of gsp, the Etiologic Mutation Responsible for Fibrous Dysplasia/McCune-Albright Syndrome: qHTS. gsp mutant cells, cAMP HTRF, 30 min; control for the full effect not named in the record. Potency, µM (doses to about 76.9 µM), for inactives: at the top dose activation (cAMP increase), usual class: activators. hit rate 0.13% among 340,000; active = well fitted activation curve with a large enough effect; inconclusive = small, poorly fitted or top-dose-only effect, or another doubt; inactive = no such curve, though single readings can be large or run the other way; cell line not stated here;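 further: phosphodiesterase inhibitor Ro 20-1724 added with compounds to block cAMP breakdown; potency means the concentration at half of the fitted maximal effect; nearly all actives have a fitted effect of over 60% in size; about a fifth of the inactives were tested at one dose only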
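Cells stably selected in G418 were plated at 2000/well, grown 16-24 hr, then given compounds in DMSO with the PDE inhibitor […] (300 uM solution added) for 30 min at 37C; cAMP was read by HTRF.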
Menin MLL FP FL: qHTS Assay for Inhibitors Targeting the Menin-MLL Interaction in MLL Related Leukemias: Competition With Fluorescein Labeled MLL-derived Peptide. Fluorescence polarization, fluorescein-MLL peptide displacement from menin. FP activity change, % at 61.4 µM. 290,000 tested, under 10 active; inconclusive = falling polarisation curve, or a change in total fluorescence; inactive = total fluorescence flat and polarisation flat or rising; no compound was filed as active; the % refers to the polarisation; negative = inhibition;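 further: % of control where 0% means no effect; inhibitors lower the polarisation; unlabelled MLL peptide was the positive control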
ClpP mod: qHTS Assay for Activators of ClpP. ATP-dependent Clp protease proteolytic subunit (Bacillus subtilis (strain 168)), P80244. purified B. subtilis ClpP, FRET peptide cleavage, 20 min. Potency, µM (top dose mostly 57.5 µM), without a hit: top-dose activity change, negative = active. hit rate 1.9% among 340,000. AID 651965, 2013; active = well fitted falling curve with a large enough effect; inconclusive = small, poorly fitted or top-dose-only effect; inactive = no such curve, though single readings can be large or run the other way; further: potency means the concentration at half of the fitted maximal effect; the source files actives as falling curves though it sought activators and does not explain the sign; nearly all actives have a fitted effect of over 65% in size; many hits overshoot -100%
Target sequence (P80244 whole entry, looked up): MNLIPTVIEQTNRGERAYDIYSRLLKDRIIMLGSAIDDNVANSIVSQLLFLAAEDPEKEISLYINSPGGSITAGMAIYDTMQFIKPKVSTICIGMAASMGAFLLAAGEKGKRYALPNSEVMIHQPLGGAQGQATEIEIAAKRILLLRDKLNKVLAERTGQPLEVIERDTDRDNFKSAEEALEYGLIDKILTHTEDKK
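ClpP 10 microg/mL final, pH 8 Tris/KCl buffer with BSA, glycerol, Tween-20; compound pinned in; FRET-FV substrate; RT 20 min; Ex320/Em430; ΔFRET vs ADEP 5.8 microM, DMSO, no enzyme.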
D2 agonist: Beta-Arrestin HTS for Positive Allosteric Modulators of the Human D2 Dopamine Receptor: Agonists; D(2) dopamine receptor (Homo sapiens), P14416; DiscoveRx PathHunter D2 beta-arrestin, luminescence, 90 min; 100% = 57 uM dopamine signal; activation, % (no concentration beside the values); hit rate 0.084% among 360,000; in the data active = activation above about 40%; inconclusive = about 15% to 40%; inactive = below about 15%; further: compound concentration not given in the record; the text of the record calls up to 30% inactive
Target sequence (P14416 whole entry, looked up): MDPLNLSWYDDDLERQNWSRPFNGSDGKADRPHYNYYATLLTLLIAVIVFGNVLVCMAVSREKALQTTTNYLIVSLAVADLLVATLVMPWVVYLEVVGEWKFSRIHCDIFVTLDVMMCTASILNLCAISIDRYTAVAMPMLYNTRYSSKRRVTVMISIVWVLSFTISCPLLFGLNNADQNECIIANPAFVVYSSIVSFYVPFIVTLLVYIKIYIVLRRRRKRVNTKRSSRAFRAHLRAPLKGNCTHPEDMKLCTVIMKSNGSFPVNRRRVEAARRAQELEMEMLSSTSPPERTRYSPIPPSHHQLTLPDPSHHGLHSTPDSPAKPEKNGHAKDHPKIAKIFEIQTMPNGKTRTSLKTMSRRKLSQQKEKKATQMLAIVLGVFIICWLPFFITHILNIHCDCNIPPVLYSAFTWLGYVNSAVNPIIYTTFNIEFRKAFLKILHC
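Agonist mode: compounds alone added to overnight-plated D2 PathHunter cells for 90 min at 37 C, with 57 uM final dopamine (EC100) defining full response. Beta-arrestin recruitment detected by chemiluminescent reagent, read after 1 h at ambient temperature.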
gsp antag: qHTS for Antagonists of gsp, the Etiologic Mutation Responsible for Fibrous Dysplasia/McCune-Albright Syndrome: qHTS | gsp-mutant cells, cAMP HTRF, 30 min; control for the full effect not named in the record | Potency, µM (titrated, usually from 76.9 µM), without a hit: at the highest dose activity change, negative = inhibition, most hits filed as inhibitors | hit rate 0.4% among 340,000; active = falling curve of any shape with a large fitted effect; inconclusive = falling curve, mostly with a smaller effect; inactive = flat or rising curve; cell line not stated here;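 further: intracellular cAMP measured with PDE inhibitor Ro 20-1724 present during compound exposure; potency means the concentration at half of the fitted maximal effect; on the % scale 0 is the no-effect control and ±100 the full control effect; nearly all actives have a fitted effect of over 65% in size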
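Cells, 2000/well, grown 16–24 h in DMEM 10% FBS with 0.5 mg/ml G418, then compounds plus […] (300 uM addition stock), 30 min at 37C. cAMP read by HTRF (cAMP-d2 and anti-cAMP antibody-K in lysis buffer) after 30 min RT.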
PINK1 expr mod: A Quantitative High throughput Screen to Identify Chemical Modulators of PINK1 Expression. PINK1 immunofluorescence, high-content cytometry, 24 h. Potency, µM (highest dose often 76.6 µM), without a hit: at the top dose activation (PINK1 increase), actives largely listed as activators. hit rate 0.2% among 410,000. AID 624263, 2012; active = well fitted activation curve with a large enough effect; inconclusive = small, poorly fitted or top-dose-only effect; inactive = flat fitted curve, though single readings scatter; cell line not stated here;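 further: potency means the concentration at half of the fitted maximal effect; % of control where 0% means no effect; nearly all actives have a fitted effect of over 65% in size; a mitochondrial uncoupler was the plate control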
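Measures PINK1 amount and localization on or inside mitochondria by immunofluorescence. Stable cells get compounds at 5 concentrations for 24 hours before fixation and staining; CCCP controls included.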
Active calls of the source: *; u = inconclusive; x = not tested or not shown; & = joins results of further samples; [ ] = remark or other dose.

mol	Sfp PPTase inh	gsp agonist	Menin MLL FP FL	ClpP mod	D2 agonist	gsp antag	PINK1 expr mod
Cc1cc(C)cc(C(=O)NCC(=O)OCc2cc([N+](=O)[O-])cc3c2OCOC3)c1	-3%	u	4.0	x	1.4	u	1.8%
Cc1ccc(NC(=O)C2C3C=CC4(O3)C2C(=O)N(CCCN2CCCC(C)C2)C4C(=O)NC2CCCCC2)cc1 (stereo not drawn)	14%	-3%	0.3	x	-3.8	10%	0.3%
COc1cccc(C2=NOC(C(=O)NCc3cccnc3)C2)c1 (stereo not drawn)	12%	-2%	1.6	x	-2.5	6%	6.6%
COc1ccc(N=C(N(C)C)P(=O)(N(C)C)N(C)C)cc1	1%	1%&-43%	7.7	-0.9%	-0.3&0.2	5%&-2%	-1.9%&-1.5%
O=C(CCn1ccc2cc(S(=O)(=O)N3CCCC3)ccc21)NCc1cccc(F)c1	7%	-1%	-0.3	-3.7%&-6.9%	2.6	-9%	-1.9%&-0.2%
O=C(NN1CCOCC1)c1cccc(Cl)c1	-4%	-9%	-2.0	-2.1%	-4.5	6%	-1.1%
O=C(NNC(=O)c1cnccc1C(F)(F)F)c1ccc(Cl)cc1	10%	-1%[15.4 µM]	-3.7	0.1%	-7.5	14%	0.9%
O=c1[nH]c2ccccc2c2ccc(Cl)cc12	x	2%	x	-21%	-1.3	12%	-0.6%
CC/C(=N\NC(=O)c1nnn(-c2nonc2N)c1CN(C)c1ccccc1)c1ccccc1	18%	-5%	-5.8	1.1%	4.2	1%	-0.4%
CN(CC(=O)Nc1ccc(F)cc1)C(=O)COC(=O)/C=C/c1cccs1	x	-4%	x	1.5%	-2.7	6%	3.2%
CCOC(=O)Nc1ccc2c(c1)nc(CN1CCOCC1)n2C	14%	-10%	-0.3	-4.7%	-3.3	0%	-4.0%
Cc1ccc(CN2C(=O)CCC2C(=O)NCCCN2CCC(C)CC2)cc1 (stereo not drawn)	4%	-4%	4.3	u	-0.9	7%	3.1%
O=C(OCC(=O)N1CCN(C(=O)c2ccco2)CC1)c1ccccc1C(=O)c1ccc(Cl)cc1	10%	-9%	4.2	-0.4%	-1.3	-6%	3.0%[38.3 µM]
CC1(C)NC(=O)N(CC(=O)N2CCN(c3cccc(C(F)(F)F)c3)CC2)C1=O	x	-34%[inhibitor]	x	-7.6%	-3.9	1%	1.1%
Cc1ccc(N2C(=O)CC(N3CCN(S(=O)(=O)c4ccccc4)CC3)C2=O)c(C)c1 (stereo not drawn)	13%	-13%	-3.5	2.3%	-0.2	-7%	1.3%
CCCSc1ncccc1C(=O)O	14%	-1%[15.4 µM]	2.9	x	-3.4	-3%	-0.3%
C1CN(CC23CC4CC(CC(C4)C2)C3)CCO1	-5%	8%	-0.1	-3.2%	-1.2	0%	-0.4%
COC(=O)[C@H](C)NC(=O)NC1CCN(Cc2ccccc2)CC1	24%	-14%	-0.6	-2.2%	-1.8	-5%	3.6%[38.3 µM]
COC(=O)c1c(NC(=O)CN2CCN(c3ccccc3Cl)CC2)sc(C)c1C	u	41%	-1.4	-25%	-7.7	0%	4.3%
Cc1cc(C)cc(NC(=O)Nc2ccc(-n3ccc(C(F)(F)F)n3)cc2)c1	7%	16%	4.0	x	4.9	-20%	u
Cc1ccccc1NS(=O)(=O)c1ccc(C(=O)N2CCN(c3ccccc3O)CC2)cc1	3%	-4%	4.1	-0.1%	1.4	-8%	6.7%
Cc1noc(C)c1COc1ccc(C(=O)OCC(=O)c2ccc3c(c2)OCCO3)cc1	0%	25%	4.4	-1.8%	-2.7	8%	5.8%
Fc1ccc(-c2nc(-c3cccs3)no2)cc1	11%	-62%[inhibitor]	0.2	0.5%	-3.3	9%	5.1%
CCCCCCC1CCC(C(=O)N2CCOCC2)CC1 (stereo not drawn)	-9%	3%	3.3	-0.4%	-2.3	-3%	0.7%
Clc1ccc2[nH]c3c(NCCN4CCOCC4)ncnc3c2c1	-5%	-11%	-0.9	u	-0.5	13%	2.8%

mol	Sfp PPTase inh	gsp agonist	Menin MLL FP FL	ClpP mod	D2 agonist	gsp antag	PINK1 expr mod
NS(=O)(=O)c1ccc(CCNC(=O)c2cc([N+](=O)[O-])ccc2N2CCOCC2)cc1	x	26%	x	-3.1%	-2.7	1%	1.0%
Cc1nc([N+](=O)[O-])c(Br)n1CC(=O)c1ccc(F)cc1	1%	8%	-2.1	x	-0.7	-6%	3.8%
CCOC(=O)C(C(=O)OCC)C1CS(=O)(=O)CC1C(C(=O)OCC)C(=O)OCC (stereo not drawn)	10%	-4%	1.7	-4.8%	-2.3	-6%	-1.1%
CCCCn1c(C2CCCCC2)nc2cc3[nH]c(=O)c(C(C)C)nc3cc21	-20%	8%	2.7	4.3%	0.7	-19%	1.5%
C[C@H]1CN(Cc2ccccc2)C(=O)[C@@H]1CC(=O)NCc1ccccc1	-15%	1%	2.3	0.9%&-0.9%	-1.2	6%	0.8%
O=C(O)c1ccccc1C(=O)c1cccc2ccccc12	12%	-4%[15.4 µM]	-3.7	-0.5%	4.9	3%	3.5%
CC(=O)c1cc(C#N)c(N2CCCCC2)nc1C	10%	u	-3.5	x	3.6	2%	2.1%
CCOC(=O)N1CCC(NC(=O)C2CCN(C(=O)N3CCOc4ccccc43)CC2)CC1	-6%	0%	-2.7	2.2%	-1.4	-1%	0.5%
Cc1ccc2nc(-c3ccc(-c4cccc(Cl)c4)cc3)c(NCc3ccccc3)n2c1	x	x	x	-28%	0.1	7%	7.7%
CCOC(=O)C1=C(C)OC(N)=C(C#N)C1c1cc2c(cc1Br)OCO2 (stereo not drawn)	-9%	3%	-0.8	-4.9%	-3.6	-10%	-0.6%
COc1ccc(C2NC(=O)CCC2[N+](=O)[O-])c(OC)c1OC (stereo not drawn)	16%	u	-2.3	1.7%	-1.3	1%	-1.4%
Cc1c(C(=O)Nc2ccncc2)sc2nc(-c3ccccc3)cn12	-2%	-22%	5.3	-20%	5.7	-16%	11%
COc1cc2cnc(-c3ccsc3)cc2cc1OC	x	x	x	4.8%	1.0	11%	1.4%
CC(C)n1cnc2c(Nc3cccc(F)c3)nc(NCCO)nc21	7%	4%	-2.6	-6.2%	0.5	-8%	-0.4%
NC1=NC2(CCCCC2)N=C(Nc2ccc(F)cc2F)N1	5%	-28%	-4.9	3.8%	-2.8	20%	4.8%
CSc1nnc(C)c(=O)n1COC(=O)COc1ccccc1C	15%	-13%	-1.3	28µM*	0.5	9%	-2.5%
Cc1ccc(OCC(=O)Nc2ccc(C)c(S(=O)(=O)N3CCCCCC3)c2)c([N+](=O)[O-])n1	7%	-3%[15.4 µM]	-2.4	-0.9%	-0.9	-29%	-0.1%
Cc1ccc(N(CC(=O)NC2CCCCC2C)S(=O)(=O)c2c(C)nn(C)c2C)cc1 (stereo not drawn)	15%	u	-0.5	-0.4%	1.0	9%	4.2%
Cc1cc(NC(=O)c2noc3c2CCCC3)nn1Cc1ccc(Cl)cc1	5%	-104%[inhibitor]	1.6	-2.3%	0.6	-4%	-0.7%
Cc1cccn2c(=O)nc(SCC(=O)N3CC(C)OC(C)C3)nc12 (stereo not drawn)	x	33%[15.4 µM]	x	32µM*	6.3	6%	0.2%
CCOc1ccccc1N1CC(C(=O)N2CCc3ccccc32)CC1=O (stereo not drawn)	25%	-5%	4.8	-3.9%	0.7	-12%	0.0%
Cc1cc(C)c2c(n1)SCC(=O)N2CC(=O)NCCC1=CCCCC1	-2%	-13%	1.4	0.3%	-3.7	7%	0.1%
COc1ccccc1OCC(=O)Nc1nonc1NC(=O)COc1ccccc1OC	-19%	-33%[inhibitor]	-6.1	-1.0%	-0.6	-1%	-1.3%
COc1ccc(OCCN2CCC(C(=O)NC(c3ccsc3)c3ccccc3C)CC2)cc1 (stereo not drawn)	x	x	x	-2.0%	-7.1	x	3.0%
CCN(CC)CCNC(=O)C(=O)NCC1OCCN1S(=O)(=O)c1ccc(Cl)cc1 (stereo not drawn)	6%	1%	-4.0	0.3%	-2.0	5%	1.2%

mol	Sfp PPTase inh	gsp agonist	Menin MLL FP FL	ClpP mod	D2 agonist	gsp antag	PINK1 expr mod
COC(=O)CNC(=O)c1cn(-c2ccc(C)c(C)c2)c(=O)c2ccccc12	-4%	-8%	-0.8	-4.5%	0.8	5%	0.7%
Cc1cccc(N2CC(C(=O)Nc3nnc(SCC(=O)Nc4cc(C)on4)s3)CC2=O)c1 (stereo not drawn)	-12%	-17%[15.4 µM]	3.8	1.1%	-3.5	15%	4.3%
Cc1cc(=O)oc2cc(OCC(=O)NCCCN3CCOCC3)c(Cl)cc12	12%	u	-6.4	3.6%	2.2	10%	2.5%
O=C1CSC(=Nc2cc(Cl)ccc2Cl)N1	15%	-6%	5.9	1.3%	-1.3	-28%	-4.3%[38.3 µM]
CCCOc1ccc(C(CC(=O)O)NC(=O)Cc2ccccc2)cc1 (stereo not drawn)	21%	-20%	-2.4	x	-2.6	0%	0.8%
Cc1cc(=O)n2[nH]c(SCc3c(F)cccc3Cl)nc2n1	x	-3%[15.4 µM]	x	0.7%	4.3	-2%	4.0%

Three of the entries above in order of the Sfp PPTase inh value, high to low.
canonical_smiles,Sfp PPTase inh
CCOc1ccccc1N1CC(C(=O)N2CCc3ccccc32)CC1=O (stereo not drawn),25%
Cc1cc(NC(=O)c2noc3c2CCCC3)nn1Cc1ccc(Cl)cc1,5%
Cc1ccc(CN2C(=O)CCC2C(=O)NCCCN2CCC(C)CC2)cc1 (stereo not drawn),4%
